Yeast UUG start: modulators of start codon recognition fidelity in yeast; S. cerevisiae UUG-firefly luciferase reporter, luminescence/redox ratio; 0.13% of 350,000 active; AID 602363; activity score, % at 18.7 µM;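 active means replicate mean at a twofold rise or more, about +100% in these data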;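 further: firefly luciferase made from a UUG start codon reports start codon fidelity; reporter light over untreated wells divided by growth signal over untreated wells; some hits fall short of that in this replicate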
Rce1 inhib: inhibitors of yeast Ras-converting enzyme; yeast membranes, quenched prenylated peptide cleavage fluorescence; calls only; 0.27% of 290,000 active; Q03530;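 active means fall in fluorescence gain of 50% or more versus controls, with final raw signal at or below 3038400; inconclusive means same 50% fall but final raw signal above 3038400; inactive means fall in fluorescence gain under 50%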;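 further: plate controls were neutral control wells for no effect and wells lacking membranes for full effect; tested at 10 µM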
Target sequence (Q03530 whole entry, looked up): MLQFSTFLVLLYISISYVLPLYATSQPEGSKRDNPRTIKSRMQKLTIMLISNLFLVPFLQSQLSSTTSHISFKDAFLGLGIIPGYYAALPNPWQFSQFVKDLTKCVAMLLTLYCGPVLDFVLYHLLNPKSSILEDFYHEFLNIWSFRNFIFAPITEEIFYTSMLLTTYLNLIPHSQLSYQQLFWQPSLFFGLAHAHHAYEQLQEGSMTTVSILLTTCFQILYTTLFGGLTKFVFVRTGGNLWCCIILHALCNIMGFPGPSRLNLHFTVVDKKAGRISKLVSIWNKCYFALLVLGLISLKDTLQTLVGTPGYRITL
MT1-MMP act inh: inhibitors of human MT1-MMP activation; GFP/RFP ratio change, % at 20 µM; AID 651647; 0.061% of 360,000 active; P50281; HT1080 RFP-PRO-GFP cells, GFP/RFP ratio fluorescence, overnight; percent of plate control window, DMSO zero;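 active means GFP/RFP ratio change of at least 30% with cell ATP level not reduced by more than half and red fluorescence within 50% of control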; further: strong numbers were not always called active
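Assay system: HT1080 cells carrying an RFP-PRO-GFP reporter | Dosing: Single dose of 20 µM compound, 1% DMSO final | Incubation: Cells overnight before dosing, compound overnight, 37 °C, 5% CO2 | Evaluation: GFP/RFP fluorescence ratio | Control set: DMSO and RFP-L50D-GFP cell wells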
eIF4H FP inh: inhibitors of RNA binding by human eIF4H | Q15056 | eIF4H fluorescence polarization binding assay | inhibition, % at 35 µM | 0.94% of 290,000 active | AID 2012;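 active means 50% or more with normal probe brightness, or confirmed in later tests; inconclusive means above 50% with abnormal brightness, or retests that disagree; inactive means below 50% or failed in later tests; about a fifth of its hits are not listed in these tables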;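 further: calls also rest on retests at 20 µM and on dose response follow-up; 0% = protein and probe with vehicle and 100% = probe without protein; strong numbers were not always called active; many hits fall short of the cut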
CSC inhib: cancer stem cell inhibition; AID 2717; cancer stem cell-like cells viability, luminescence; 1.1% of 300,000 active; inhibition, % at 7.5 µM;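 active means mean at 75% or more and at least half the replicates too; inconclusive means mean and replicates disagree; tested in HMLE shEcad cells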;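 further: 0% = median of negative and 100% = median of positive control wells; the first replicate is given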
PABP FP inh: PABP-poly(A) binding inhibition | P11940 | inhibition, % at 35 µM | PABP-poly(A) RNA binding, fluorescence polarization | 1% of 290,000 active | AID 2014;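 active means 50% or more with normal probe brightness, or confirmed in later tests; inconclusive means above 50% with abnormal brightness, or retests that disagree; inactive means below 50% or failed in later tests; about a fifth of its hits are not listed in these tables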;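 further: calls also rest on retests at 20 µM and on dose response follow-up; controls were probe without protein and protein plus probe with vehicle; some compounds called inactive have numbers as strong as hits; many hits fall short of the cut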
HIV Env fusion: inhibitors of HIV Env-mediated cell fusion | inhibition, % at 12.3 µM | HeLa-JRFL Env/CEM21 cell fusion, luciferase | 1.1% of 360,000 active | AID 651610;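 active means mean replicate inhibition score of at least 50 and every replicate individually at or above 50; inconclusive means only one of the two criteria met; inactive means mean below 50 and not all replicates reaching 50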;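 further: 0% = plate neutral controls and 100% = maraviroc near 300 nM; one replicate is shown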
MT1-MMP act inh RFP: recorded beside MT1-MMP act inh, whose call it bears; RFP signal change, %; measured here: RFP expression control read;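 0 = vehicle wells; hits needed this value within 50% of zero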
* hit, by the source's call; i = inactive; ? = inconclusive; / = not tested or not shown; & = joins results of further samples.

SMILES	Yeast UUG start	Rce1 inhib	MT1-MMP act inh	MT1-MMP act inh RFP	eIF4H FP inh	CSC inhib	PABP FP inh	HIV Env fusion
CN(CC(=O)Nc1ccc(Cl)c(C(F)(F)F)c1)C(=O)CCC(=O)c1ccccc1	-15	/	10	-7	/	2	/	/
COc1ccc(OC)c(N2CC(O)(c3cccs3)[N+]3=C2SCCC3)c1 (stereo unspecified)	5	i	0	2	2	7	8	-1
CCOc1ccc(C2NC(=O)Cc3cc(OC)c(OC)cc32)cc1 (stereo unspecified)	1	i	6	3	-1	-11	-1	2
CCCCC1=CC2=C(c3ccco3)C(=O)C(C)(OC(=O)c3ccc(OC)cc3)C(=O)C2=CN1CC1CC1 (stereo unspecified)	5	i	-24	5	?	-3	?	-11
O=C(Cn1nnc2ccccc21)c1ccc(Br)cc1	9	i	-9	-9	-1	-1	10	-20
CCN(CC)CCCNC(=O)c1cn(CC)c2cc(N3CCN(C(=O)c4ccco4)CC3)c(F)cc2c1=O	15	i	-3	-1	-17	-7	10	-2
Cc1nc(-c2ccc(S(=O)(=O)N3CCCN(CCc4ccccc4)CC3)s2)cs1	1	i	11	-4	34	26	27	15
CN(C(=O)OC(C)(C)C)[C@H](Cc1ccccc1)C(=O)N[C@H]1CCCCNC1=O	-2	/	3	7	/	/	/	-25
O=C(/C=C/c1nc2ccccc2s1)N1CCCCCC1	-11	i	1	1	-1	/	-5	-50
COc1ccc(-c2cc(NC(C)=O)c3ncc(-c4ccccc4)n3c2)c(OC)c1	-5	/	-3	-1	/	/	/	-12
CN(C)S(=O)(=O)c1cccc(NC(=O)CSc2nc3c(cc2C#N)C(=O)CC(C)(C)C3)c1	/	i	-1	-15	3	?	-20	70*
O=C(Nc1cccnc1Cl)c1ccc2c(Cl)c3c(nc2c1)CCC3	/	i	1	-6	-3	/	5	-108
CCCNC(=O)C1(C)CCCN(Cc2ccccc2F)C1 (stereo unspecified)	-12	/	0	0	/	/	/	5
O=C(CCc1ccccc1)NCC(=O)N/N=C/c1ccc(O)cc1O	/	i	7	-2	8	50	-5	-7
O=C(CSc1nncc2ccccc12)Nc1cccc(O)c1	-22	i	2	3	2	14	9	3
O=C(Nc1cccc(NC(=O)c2ccc(F)cc2)c1)c1ccc(F)cc1	-9	i	-3	4	-15	-12	1	3
CCC(=O)NC(c1ccccc1)c1c(O)ccc2ccccc12 (stereo unspecified)	-7	i	-1	0	-5	-12	-2	-3
CCN(C(=O)CSc1nc(C2CC2)n(-c2ccccc2)n1)C1CCS(=O)(=O)C1 (stereo unspecified)	-3	/	-4	1	/	/	/	-7
Cn1c(=O)c2c(ncn2CC(=O)Nc2ccccc2)n(C)c1=O	-7	i	-3	2	-6	-5	-4	/
COc1ccccc1CN1CCN(Cc2ccc3ccccc3c2)CC1	7	i	0	2	2	9	-1	13
N=c1c2ccccc2nc2n1CCCCCCCCCCC2	-5	i	1	-16	/	36	/	22
CCC(Oc1ccccc1F)C(=O)NCCCn1ccnc1 (stereo unspecified)	-11	/	-5	-1	-3	-3	12	-11
COc1ccc(C(=O)N2CCCC2)cc1S(=O)(=O)N1CCC(C)CC1	-1	i	-5	4	10	-10	-1	/
Cc1cc(C)n(-c2nnc(NC34CC5CC(CC(C5)C3)C4)nn2)n1	-18	i	9	2	-2	33	-6	-78
Cc1oc(CC(C)C)cc1C(=O)Nc1ccc(C(=O)O)cc1	-8	i	6	6	0	-16	11	-77
C[C@H]1CN([C@@H](C)CO)C(=O)c2cccc(NS(=O)(=O)c3cn(C)cn3)c2O[C@H]1CN(C)S(C)(=O)=O	-12&-13	/	0	2	/	-1	/	3
CCNC(=O)C1CN(S(=O)(=O)c2ccccc2)CCN1S(=O)(=O)c1ccccc1 (stereo unspecified)	/	i	-1	5	3	/	-6	/
CCn1c(SCc2ccc(C#N)cc2)nnc1-c1ccc(S(=O)(=O)N2CCCCC2)cc1	-17	i	-3	-14	0	-15	6	46
O=c1[nH]c(SCCOc2cccc3ccccc23)nc2ccccc12	/	i	4	6	0	/	3	17
COc1ccccc1NCCC(=O)OCC(=O)NC1CCCCCC1	14	i	3	2	4	-19	-10	-2
COc1ccc(C2=NN(C(=O)c3ccco3)C(c3cc4ccccc4nc3Cl)C2)cc1 (stereo unspecified)	/	i	/	/	-8	-17	14	/
Cc1ccc(C)c(CNc2ccc(S(=O)(=O)N3CCCCC3)cc2)c1	-5	/	-11	-21	/	18	/	76*
CSc1nc2sc3c(c2c(=O)n1C)CCCC3	-6	i	5	4	-5	0	1	/
CC(C)CCN(CC(=O)NCc1ccc(F)cc1)S(=O)(=O)c1ccccc1F	2	i	2	-8	4	-2	8	12
COc1cc(CNC(C)c2ccccc2)cc(Cl)c1OCC(=O)Nc1ccccc1 (stereo unspecified)	/	i	-4	1	3	27	-6	71*
O=C1CCCN1CCNC(=S)Nc1ccccc1	-14	i	3	-1	-14	-12	-4	/
Cc1oc(CSCCSCc2cc(C(=O)O)c(C)o2)cc1C(=O)O	-8	i	-1	2	0	-6	-1	-5
CC(C)Cn1c(N2CCN(C(=O)c3cccs3)CC2)nc2ccccc21	/	i	0	2	-5	2	7	9
Cc1cc(N2CCOCC2)ccc1/C=C1\NC(=O)N(CC(=O)Nc2ccccc2C)C1=O	-8	i	1	9	-4	-6	6	-48
COC(=O)Cn1cc(C(=O)c2ccco2)c2ccccc21	-10	i	-1	1	-1	/	2	-12
CCOC(=O)N1CCN(c2ccncc2S(=O)(=O)N2CCCCC2)CC1	-11	/	-2	1	4	-12	1	-3
CCCn1c(N)c(C(=O)CN(C)CC(=O)Nc2ccc(C)cc2)c(=O)[nH]c1=O	-1	/	-1	-1	/	/	/	-9
CN1C(=O)S/C(=C/c2cccnc2)C1=O	-18	i	1	2	7	5	-7	-28
NS(=O)(=O)c1ccc(NC(=O)COC(=O)CNC(=O)C23CC4CC(CC(C4)C2)C3)cc1	-7	i	-1	6	-4	-3	-1	2
CC(=O)c1c(C)nc(C)nc1NC(=O)Cc1ccccc1	-19	i	3	3	0	/	2	/
O=C(NC(=S)Nc1nc2ccc(F)cc2s1)c1ccco1	-14	i	-2	4	-1	-8	-4	-80
Cc1cnc(C)c(N2CCN(Cc3nc(-c4ccc(C)o4)oc3C)CC2)n1	/	i	-2	4	7	-4	-1	-4
O=C1c2oc3ccc(Cl)cc3c(=O)c2C(c2ccccn2)N1CCCN1CCOCC1 (stereo unspecified)	/	i	/	/	-4	-4	2	7
CSCCC(NC(=O)COc1ccccc1)C(=O)N1CCN(c2cccc(C(F)(F)F)c2)CC1 (stereo unspecified)	13	/	-2	-8	/	/	/	11
O=C(Nc1ccc(Cl)cc1F)c1ccc(COc2c(F)c(F)c(F)c(F)c2F)o1	-1	i	-2	5	8	19	9	/

(continued)
SMILES	Yeast UUG start	Rce1 inhib	MT1-MMP act inh	MT1-MMP act inh RFP	eIF4H FP inh	CSC inhib	PABP FP inh	HIV Env fusion
CCOc1ccc(C(=O)NCCC(=O)N2CCC3(CC2)NCCc2[nH]cnc23)cc1	-3	i	-1	-2	/	-9	/	5
Cc1ccc2nc(N(CCCN(C)C)C(=O)c3cc(-c4cccs4)nc4ccccc34)sc2c1	18	i	4	1	0	103*	-22	/
O=C(COc1ccccc1Cl)N1CCN(c2ncccn2)CC1	/	i	5	2	2	16	-7	-20
COc1ccc(N2CC(NC(=O)Nc3ccccc3)CC2=O)cc1 (stereo unspecified)	/	i	-1	0	4	-16	-11	-9
CN(C)S(=O)(=O)c1ccc(C(=O)Nc2ccccc2C(=O)NCCCN2CCOCC2)cc1	-3	/	2	1	/	-15	/	24
COc1cc(C2NC(=O)NC(c3ccccc3)=C2C(C)=O)c(Cl)cc1OCC(=O)O (stereo unspecified)	/	i	-1	0	8	-13	6	-9
Fc1ccccc1/C=C1\CCCC2=C1NC(=S)NC2c1ccccc1F (stereo unspecified)	/	i	-6	-7	2	-1	15	15
CCC(CC)C(=O)Nc1nnc(S(=O)(=O)N(CC)c2ccc(OC)cc2)s1	-17	i	1	-3	-2	5	0	-1
O=C(N1CCOCC1)N1CCN(C(=O)N(c2ccccc2)c2ccccc2)CC1	/	i	1	3	-5	-17	-1	/
CCc1nc2c(OCCC3CCCCC3)cccn2c1N(C)C(=O)c1ccc(C)cc1	-14	/	-19	-13	/	/	/	-16
O=C(NCCCn1ccnc1)c1ccc(Cl)s1	-7	i	1	2	7	4	12	-5
Fc1cccc(/C=N/Nc2ccccn2)c1	/	i	1	-3	5	3	23	-63
Cc1ccc(S(=O)(=O)Nc2ccc(S(=O)(=O)Nc3ncccn3)cc2)cc1	6	i	/	/	9	-5	-5	/
CCc1cccc(CC)c1NC(=O)CSc1nnc(C2CC2)n1N	-15	/	2	6	/	/	/	10
COc1cc(/C=C2\SC(=S)N(Nc3ccccc3)C2=O)ccc1O	-10	i	-34	88	17	/	-9	-322
Cc1ccc(-c2cc(NC(=O)CSc3n[nH]c(N)n3)n(-c3ccccc3)n2)cc1	-29	i	0	1	-4	9	-10	/
CS(=O)(=O)c1ccc(C(=O)Nc2cc(-c3ccccc3)nn2-c2ccccc2)cc1	-3	/	-1	-1	/	-3	/	3
Cc1cc(C)n2ncc(C(=O)NCCc3ccccc3)c2n1	10	i	-2	4	2	-10	-5	-22
Cc1cc(C)nc(Nc2cccc(Cl)c2)n1	-13	i	-7	-8	-1	-22	-6	-23
CS(=O)(=O)c1ccc(Cl)c(NC(=O)COC(=O)c2cccc(C#N)c2)c1	-10	i	1	4	14	-6	7	-16
COC(=O)c1c(NC(=O)Cc2cccs2)sc(C)c1C	-14	i	-3	0	-11	-2	-8	/
CC1=C(C(=O)OC2CCCCC2)C(c2cccc([N+](=O)[O-])c2)NC(=O)N1 (stereo unspecified)	-2	i	1	-5	-2	-5	9	3
COC(C[C@H]1O[C@H]1[C@@H](O)[C@@H](C)OCc1ccccc1)OC	-3	i	-2	0	-6	/	-8	-5
O=c1[nH]c2cc([N+](=O)[O-])c(NCCO)c([N+](=O)[O-])c2[nH]1	/	/	12	-1	-4	-1	-4	-4
C/C(=N\NC(=O)c1nn(C)c(C)c1Br)c1ccc(NC(=O)c2ccc(C)s2)cc1	/	i	0	2	12	5	9	-89
COc1ccc(-n2nnnc2SCC(=O)NCCc2ccccc2)cc1OC	/	i	1	0	2	12	0	8
CCCCCOC(=O)c1ccc(OC(=O)c2cncc(Br)c2)cc1	-23	i	-5	-3	-1	26	-2	/
Cc1sc(NC(=O)CSC2=NCCS2)nc1-c1ccccc1	-16	i	-2	2	1	/	9	-39
Cc1ccsc1C(=O)OCC(=O)c1cc(C)n(C)c1C	-36	/	0	-1	/	2	/	/
CCCCNC(=O)Cn1c(=O)c2c(ncn2CC)n(Cc2ccccc2)c1=O	-7	i	-1	1	-5	-10	9	-3
Cc1cccc(C)c1NC(=O)c1cn(-c2ccccc2)nc1-c1ccccc1	-22	i	-8	0	0	-7	5	3
CCc1ccc(NC(=O)[C@H](Cc2c[nH]c3ccccc23)NC(=O)[C@@H]2Cc3ccccc3CN2)cc1	-17	/	-4	-3	-18	-2	-9	/
O=C(O)c1cccc(NC(=S)N/N=C/c2ccccn2)c1	/	i	2	3	15	3	-1	16
CCc1ccc(CN(C)C(=O)c2ccc3c(=O)n4c(nc3c2)CCC4)cc1	-4	i	2	8	-13	-2	2	5
CCOC(=O)CN1C(=O)COc2ccc(C(C)(C)C)cc21	0	i	-6	-3	-18	6	-6	22
